PINK1 expr mod – changes PINK1 expression; PINK1 immunofluorescence, high-content cytometry, 24 h; Potency, µM (top dose mostly 76.6 µM), inactives show top-dose activation (PINK1 increase), most hits filed as activators; 410,000 compounds, 0.2% hits; AID 624263; active = well fitted activation curve with a large enough effect; inconclusive = small, poorly fitted or top-dose-only effect; inactive = flat fitted curve, though single readings scatter; cell line not stated here;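 note: potency is the fitted concentration of half-maximal effect; % of control where 0% means no effect; nearly all actives have a fitted effect of over 65% in size; a mitochondrial uncoupler was the plate control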
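Measures PINK1 amount and localization on or inside mitochondria by immunofluorescence. Stable cells get compounds at 5 concentrations for 24 hours before fixation and staining; CCCP controls included.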
gsp agonist – gsp mutant agonism | gsp mutant cells, cAMP HTRF, 30 min; control for the full effect not named in the record | Potency, µM (series often up to 76.9 µM), for the others: at the top dose activation (cAMP increase), actives largely listed as activators | 340,000 compounds, 0.13% hits; active = well fitted activation curve with a large enough effect; inconclusive = small, poorly fitted or top-dose-only effect, or another doubt; inactive = no such curve, though single readings can be large or run the other way; cell line not stated here;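 note: phosphodiesterase inhibitor Ro 20-1724 added with compounds to block cAMP breakdown; potency is the fitted concentration of half-maximal effect; nearly all actives have a fitted effect of over 60% in size; about a fifth of the inactives were tested at one dose only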
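Cells in DMEM/10% FBS with G418 were pretreated with compounds in DMSO plus […] (300 uM stock) for 30 min at 37C. cAMP was measured by HTRF (cAMP-d2 plus anti-cAMP antibody-K) after 30 min at room temperature.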
gsp antag – antagonists of gsp mutant (McCune-Albright syndrome); 340,000 compounds, 0.4% hits; Potency, µM (doses to about 76.9 µM), for the others: top-dose activity change, negative = inhibition, most hits filed as inhibitors; gsp-mutant cells, cAMP HTRF, 30 min; control for the full effect not named in the record; AID 624288; active = falling curve of any shape with a large fitted effect; inconclusive = falling curve, mostly with a smaller effect; inactive = flat or rising curve; cell line not stated here;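 note: intracellular cAMP measured with PDE inhibitor Ro 20-1724 present during compound exposure; potency is the fitted concentration of half-maximal effect; % is set by controls: 0 for no effect and ±100 for the full control effect; nearly all actives have a fitted effect of over 65% in size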
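HTRF cAMP measurement after 30 min RT detection following 30 min, 37C compound treatment alongside […] (added as 300 uM solution) in G418-selected cells seeded at 2000/well and grown 16–24 h.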
Menin-MLL FL inh – inhibitors of human menin-MLL interaction, wild-type MLL peptide | FP activity change, % at 61.4 µM | Fluorescence polarization, fluorescein-MLL peptide displacement from menin | AID 1766 | 290,000 tested, under 10 active; inconclusive = falling polarisation curve, or a change in total fluorescence; inactive = total fluorescence flat and polarisation flat or rising; no compound was filed as active; the % refers to the polarisation; negative = inhibition;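 note: % of control where 0% means no effect; inhibitors lower the polarisation; unlabelled MLL peptide was the positive control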
ClpP mod – qHTS Assay for Activators of ClpP; purified B. subtilis ClpP, FRET peptide cleavage, 20 min; AID 651965, 2013; 340,000 compounds, 1.9% hits; ATP-dependent Clp protease proteolytic subunit (Bacillus subtilis (strain 168)), P80244; Potency, µM (top dose mostly 57.5 µM), for inactives: at the highest dose activity change, negative = active; active = well fitted falling curve with a large enough effect; inconclusive = small, poorly fitted or top-dose-only effect; inactive = no such curve, though single readings can be large or run the other way; note: potency is the fitted concentration of half-maximal effect; the source files actives as falling curves though it sought activators and does not explain the sign; nearly all actives have a fitted effect of over 65% in size; many hits overshoot -100%
Target sequence (P80244 whole entry, looked up): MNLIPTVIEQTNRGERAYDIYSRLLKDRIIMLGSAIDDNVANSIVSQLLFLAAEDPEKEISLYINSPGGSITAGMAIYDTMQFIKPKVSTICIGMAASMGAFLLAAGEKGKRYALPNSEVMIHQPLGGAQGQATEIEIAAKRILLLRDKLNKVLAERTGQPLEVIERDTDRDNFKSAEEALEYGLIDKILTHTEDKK
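Purified B. subtilis ClpP, 10 microg/mL final in Tris/HCl pH8 with KCl, BSA, glycerol and Tween-20, cleaved an Abz/nitrotyrosine-quenched decapeptide. Fluorescence (ex 320, em 430) was read at 0 and 20 min at room temperature. Delta was normalized to 5.8 microM ADEP and DMSO/no-enzyme controls.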
D2 agonist – human D2 receptor agonism in beta-arrestin assay. activation, % (concentration not given with the values). P14416. DiscoveRx PathHunter D2 beta-arrestin, luminescence, 90 min; 100% = 57 uM dopamine signal. 360,000 compounds, 0.084% hits. AID 624465; in the data active = activation above about 40%; inconclusive = about 15% to 40%; inactive = below about 15%; note: the text of the record calls up to 30% inactive
Target sequence (P14416 whole entry, looked up): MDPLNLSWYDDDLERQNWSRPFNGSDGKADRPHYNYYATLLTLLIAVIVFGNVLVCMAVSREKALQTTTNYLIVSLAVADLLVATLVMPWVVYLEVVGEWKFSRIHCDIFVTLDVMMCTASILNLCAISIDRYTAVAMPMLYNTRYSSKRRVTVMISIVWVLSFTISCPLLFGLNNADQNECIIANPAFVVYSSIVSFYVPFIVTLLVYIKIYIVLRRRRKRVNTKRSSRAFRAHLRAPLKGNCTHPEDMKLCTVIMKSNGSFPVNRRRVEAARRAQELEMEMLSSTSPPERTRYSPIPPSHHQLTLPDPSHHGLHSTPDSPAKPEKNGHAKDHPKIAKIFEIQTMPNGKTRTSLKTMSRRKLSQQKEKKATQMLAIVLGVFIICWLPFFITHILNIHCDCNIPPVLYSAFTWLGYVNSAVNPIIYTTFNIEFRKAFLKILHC
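Agonist mode: compounds alone added to overnight-plated D2 PathHunter cells for 90 min at 37 C, with 57 uM final dopamine (EC100) defining full response. Beta-arrestin recruitment detected by chemiluminescent reagent, read after 1 h at ambient temperature.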
Sfp PPTase inh – blocks B. subtilis Sfp PPTase activity. Biochemical Sfp PPTase activity, qHTS. 310,000 compounds, 3.5% hits. Potency, µM, without a hit: max response, negative = inhibition, actives largely listed as inhibitors. Q9F4F7. AID 1490; active = well fitted inhibition curve with a large enough effect; inconclusive = small, poorly fitted or top-dose-only effect, or another doubt; inactive = no such curve, though single readings can be large or run the other way;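 note: the enzyme is Sfp with the accession as filed and its product quenches rhodamine fluorescence; potency is the fitted concentration of half-maximal effect; 0% = enzyme reaction without inhibitor and -100% = no enzyme wells; top concentration of the series not given in the record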
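Reaction rates are the 30-min fluorescence difference (ex 525, em 598 nm) in wells containing 15 nM Sfp, 5 uM rhodamine-CoA and 12.5 uM BHQ-2-YbbR at pH 7.6 with 10 mM MgCl2.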
Active calls of the source: *; u = inconclusive; x = not tested or not shown; & = joins results of further samples; [ ] = another dose, or the depositor's remark. Rows were taken by chance. About 5.1% of those tested had a hit in this group.

SMILES | PINK1 expr mod | gsp agonist | gsp antag | Menin-MLL FL inh | ClpP mod | D2 agonist | Sfp PPTase inh
COc1ccc(S(=O)(=O)NCC2CCCN(C(=O)c3cccnc3)C2)cc1 (configuration not stated) | 2.4% | 21%[15.4 µM] | -16% | 0.3 | -0.3% | 0.1 | -2%
C=CCc1ccc(OC(=O)c2ccccc2)c(OC)c1 | -0.3%&3.5% | x | 10% | -1.1&-0.1 | -0.2% | -4.2 | -7%&1%
COC(=O)c1ccc2ccccc2n1 | -0.4% | x | 6% | x | -4.8% | -6.1 | x
O=C(Nc1ccc(Br)cc1)c1ccc(N2C(=O)C3CC=C(Cl)CC3C2=O)cc1 (configuration not stated) | 23% | -55%[inhibitor] | -12% | -1.1 | -10% | 2.6 | 9%
O=C(N/N=C/c1ccc2c(c1)OCO2)c1cccs1 | -0.2% | -35%[inhibitor] | -7% | 3.7 | x | -0.3 | 21%
O=C(NC(=O)c1ccccc1)OCC(F)(F)F | -0.8% | 14% | 7% | 3.3 | -0.7% | -1.0 | 20%
Cc1cc(F)ccc1S(=O)(=O)Nc1nc2ccccc2nc1Cl | -0.3% | 22µM* | 9% | -5.0 | x | 6.5 | 7%
CN1CCN(C(=O)CCN2C(=O)/C(=C\c3ccc(Cl)cc3Cl)SC2=S)CC1 | 0.8% | 3%[15.4 µM] | 11% | 1.7 | x | -3.0 | 2%
Fc1ccc(NC(=S)N2CCOCC2)c(F)c1 | -1.0% | -24% | 3% | -0.5 | 0.7% | -1.4 | 8%
COc1ccccc1NC(=O)N1CCN(S(C)(=O)=O)CC1 | 1.1% | -2%[15.4 µM] | 19% | -1.8 | x | 4.1 | 16%
COc1ccc(Cl)cc1N1C(=O)/C(=C/c2sccc2C)N=C1SCC(=O)NC1CC1 | 3.9% | -4% | u | x | x | -2.8 | x
COC(=O)[C@H](Cc1ccccc1)NC(=O)C1(OC(C)=O)CC(OC(C)=O)C(OC(C)=O)C(OC(C)=O)C1 (some centres not stated) | 2.5% | -2% | 4% | -7.8 | x | 0.9 | 2%
Cc1cc(C)n(-c2ccc(C(=O)OCC(=O)Nc3cc(Cl)ccc3[N+](=O)[O-])cc2)n1 | 7.3% | 10% | 11% | 11 | u | 2.4 | -20%
O=C(c1ccc(CS(=O)(=O)c2ccc(Br)cc2)o1)N1CCOCC1 | 2.6% | u | -2% | -0.5 | 0.8% | -3.2 | 14%
COc1ccccc1NC(=O)CN1CCN(c2ccccc2)CC1 | 0.5% | -43%[inhibitor] | -8% | 1.4 | -3.3% | 5.1 | 9%
Cc1csc(NC(=O)CSc2nc3sc(C)c(C)c3c(=O)[nH]2)n1 | 2.0% | -29% | -10% | 0.7 | -4.6% | -6.7 | 20µM*
Cc1cccc(NC(=O)NCCCCc2ccccc2)c1 | -1.0% | u | -20% | -2.3 | -2.2% | 4.2 | 4%
CCn1nc(CC(C)C)cc1C(=O)N1CCCC(Nc2ccc(F)cc2)C1 (configuration not stated) | 0.4% | -39%[inhibitor] | 5% | x | 0.6% | 1.5 | 11%
COc1ccccc1-c1cnc2c(Nc3cccc(OC(F)(F)C(F)F)c3)nccn12 | 1.3% | x | x | x | -12% | 7.8 | x
COc1ccccc1CN1CCN(Cc2nc(-c3cccs3)no2)CC1 | 2.9% | 19% | 1% | 3.2 | 0.8% | -1.1 | -1%
O=C(CN1C(=O)/C(=C/c2ccccc2F)Sc2ccccc21)NCc1cccnc1 | -2.5% | 21% | -26% | -2.7 | -4.3% | -6.6 | -10%
N=C(N)N1CCc2ccccc21 | 5.0% | -3%[15.4 µM] | 14% | 4.7 | x | -5.1 | 19%
Cc1ccc(Nc2nc3ccccc3s2)cc1 | 13% | 15% | -4% | x | 0.3% | 1.0 | 15%
Cn1cc(CNC(=O)c2cc(-c3ccccc3)nc3ccc(Br)cc23)cn1 | 9.2% | 29%[15.4 µM] | 4% | 2.7 | 0.9% | -0.1 | -3%
COc1ccc(CCNC(=O)C2CCCN2C(=O)Nc2ccccc2)cc1OC (configuration not stated) | -0.7% | -10% | -1% | 3.7 | 1.8% | 1.2 | 12%
COc1cccc(NC(=O)c2ncn[nH]2)c1 | 0.2% | -3% | 11% | -1.8 | 1.8% | 0.8 | -11%
O=C(NNc1c(Cl)cc(Cl)cc1Cl)c1n[nH]c(=O)c2ccccc12 | 17% | -8% | 13% | 1.0 | 0.6% | -3.1 | 10%
Cn1cccc1/C=C1\SC(=Nc2ccc(O)cc2)NC1=O | u | 0% | -3% | u | 1.6% | -4.1 | 1%
O=C(NCCN1CCc2ccccc2C1)C1CCN(S(=O)(=O)N2CCC3(CC2)OCCO3)CC1 | x | 1% | 8% | 4.5 | -0.5% | 5.4 | -27%
COc1ccccc1C(=O)NNC(=O)c1ccc(NC(=O)CC(C)C)cc1 | 2.6% | u | 10% | 3.2 | -1.2% | -2.0 | 9%
NC(=O)c1ccc(NC(=O)CNC(=O)c2sc3ccccc3c2Cl)cc1 | 1.3% | -25% | 6% | x | 1.1% | -0.3 | x
O=C1NC(=O)c2cc(Oc3ccc([N+](=O)[O-])cc3)ccc21 | 5.3% | -6% | -1% | -0.4 | 2.6% | 2.1 | 14%
CSc1nc(N(C)NC(=O)c2ccc(Cl)cc2)c2ccccc2n1 | 3.9% | 28% | -9% | 0.3 | u | -4.8 | 50µM*
CCOC(=O)c1c(C)[nH]c(C)c1S(=O)(=O)NCCCN1CCOCC1 | 0.0% | -38%[inhibitor] | 9% | 0.9 | -1.5% | -4.1 | 9%
Cc1ccc(NC(=O)c2ocnc2C)cc1Cl | 3.4%[38.3 µM] | -4% | 9% | 2.4 | 0.7% | -3.9 | -5%
COc1ccc(CCNC(=O)Cc2ccsc2)cc1 | 1.0% | 1% | 6% | x | -1.1% | -2.8 | 12%
FC(F)(F)c1cc(N2CCNCC2)c2ccccc2n1 | -0.5% | 17%[15.4 µM] | 10% | 2.7 | 1.2% | -3.7 | 1%
CCCCCNc1nc2sc3c(c2c(=O)n1-c1cccc(Cl)c1)CCN(C)C3 | 2.1% | 4%[15.4 µM] | -3% | 15 | -2.4% | 0.8 | 1%
O=C(CSc1nnnn1Cc1ccccc1)c1ccc(F)cc1 | -0.7% | 15% | 0% | 2.9 | 0.7% | 1.2 | -11%
COc1ccccc1NC(=O)CSc1nc2ncccc2[nH]1 | -1.5%[38.3 µM] | 16% | 4% | -0.9 | 1.8% | 0.0 | 12%
COc1cccc(N=Nc2c(C)[nH]n(-c3ccccc3)c2=O)c1 | 4.8% | -40% | -14% | 2.0 | 0.7% | -1.4 | -17%
CN(CC(=O)Nc1ccc(C(N)=O)cc1)CC(=O)Nc1ccccc1Cl | -0.2% | 6% | 8% | 11 | -3.4% | 1.3 | -5%
CN(C)c1ncnc2c1ncn2[C@H]1CN(Cc2cccnc2)C[C@@H](CO)O1 | 3.2% | x | x | x | 0.0% | -5.9 | x
Cc1ccc2nc(SCC(=O)Nc3ccc(F)cc3F)nc(=O)n2c1 | -2.5% | 57%[15.4 µM] | 8% | x | 1.0% | -1.7 | x
CC1(C)Oc2ccc(C(=O)N3CCOCC3)cc2N(CC(=O)Nc2ccccc2)C1=O | 0.5% | -2% | -8% | 1.8 | 0.8% | -3.6 | 10%
CCCCNC(=O)C1(C)CCN1C(=O)c1cccc(OC(F)(F)F)c1 (configuration not stated) | 2.3% | x | x | x | -0.6% | -2.5 | x
CCOc1ccc(S(=O)(=O)N2CCCCC2)cc1NC(=O)CN1C(=O)NC(C)(c2ccc(C)cc2)C1=O (configuration not stated) | 0.9% | -3%[15.4 µM] | -30% | x | -2.4% | 0.3 | x
O=C1CNC(=S)N1Cc1ccc(Cl)cc1 | 1.5% | 19% | 10% | 5.6 | 1.6% | -5.6 | 12%
COCCCn1c(Cc2ccccc2)nnc1SCC(=O)N1CCCCC1 | 4.1%[38.3 µM] | -78%[inhibitor] | 4% | 4.3 | 0.8% | -4.0 | -8%
O=C(c1ccc([N+](=O)[O-])cc1)N1CCSC1c1ccc(Br)cc1 (configuration not stated) | -0.3% | -22%[15.4 µM] | -9% | 0.0 | x | 3.3 | 7%
(list continues)
SMILES | PINK1 expr mod | gsp agonist | gsp antag | Menin-MLL FL inh | ClpP mod | D2 agonist | Sfp PPTase inh
CCOc1ccccc1NC(=O)CSc1nncc2ccccc12 | 0.3% | 27% | -5% | 8.8 | x | -0.7 | 14%
Cc1ccc(C)c(S(=O)(=O)N(C)c2ccc(OC(=O)CN3C(=O)NC4(CCCC4)C3=O)cc2)c1 | -0.8% | -62%[inhibitor] | 5% | x | 1.9% | 3.5 | x
O=C(O)c1ccccc1N1C(=O)C2C3CCC(C3)C2C1=O (configuration not stated) | 4.7% | -5%[15.4 µM] | -5% | 3.6 | 0.4% | -1.0 | 7%
Cc1ccccc1Nc1nc2ccccc2n1C(C)C | 1.1% | -8% | 3% | 3.0 | 1.0% | -1.1 | 13%
Cc1ccc(NC(=O)CSc2nnc(CNC(=O)c3ccccc3F)o2)cc1 | -1.2% | 2% | 1% | 3.8 | x | 4.8 | -12%
ClC1(Cl)CC1Cn1c(C2CC2)nc2ccccc21 (configuration not stated) | 0.7% | -16% | 8% | 0.4 | -1.0% | -4.3 | 21%
CC(C)(C)SCCNC(=O)CSCc1ccc([N+](=O)[O-])cc1 | -0.9% | -13% | -6% | 3.2 | -0.9% | -0.9 | 10%

In the list so far, three have a CF3 group.
SMILES | PINK1 expr mod | gsp agonist | gsp antag | Menin-MLL FL inh | ClpP mod | D2 agonist | Sfp PPTase inh
O=C(NC(=O)c1ccccc1)OCC(F)(F)F | -0.8% | 14% | 7% | 3.3 | -0.7% | -1.0 | 20%
FC(F)(F)c1cc(N2CCNCC2)c2ccccc2n1 | -0.5% | 17%[15.4 µM] | 10% | 2.7 | 1.2% | -3.7 | 1%
CCCCNC(=O)C1(C)CCN1C(=O)c1cccc(OC(F)(F)F)c1 (configuration not stated) | 2.3% | x | x | x | -0.6% | -2.5 | x
